Assay outcomes deposited in PubChem BioAssay by National Center for Advancing Translational Sciences (NCATS).
RE007 growth inh = less growth of the S. pombe RE007 Vpr strain; AID 651644; Potency, µM (top dose mostly 92.2 µM), for the others: at the top dose activity change, negative = less growth; S. pombe RE007 Vpr strain, BacTiter-Glo ATP luminescence, 24 h; control for the full effect not named in the record; 0.21% of 360,000 active; active = well fitted falling curve with a large enough effect; inconclusive = small, poorly fitted or top-dose-only effect; inactive = no such curve, though single readings can be large or run the other way;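 note: % is set by controls: 0 for no effect and ±100 for the full control effect; nearly all actives have a fitted effect of over 50% in size; the assay follows cell death caused by Vpr and the record does not say whether a fall means rescue or toxicity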
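Fission yeast strain RE007, carrying one chromosomally integrated HIV-1 vpr copy, was seeded at OD 0.01 in PMG+AL medium with 23 nL pinned compound. After 24 h at 30 °C and 99% humidity, viability was read by BacTiter-Glo luminescence.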
MARV entry inh = blocks Marburg virus binding to or entry into cells; AID 540276; Potency, µM (highest dose often 37.8 µM), inactives show at the top dose activity change, negative = inhibition, usual class: inhibitors; Marburg virus pseudotyped entry inhibition, cell reporter; control for the full effect not named in the record; about a third of the inactives were read at about 46 µM; 1.8% of 300,000 active; active = well fitted inhibition curve with a large enough effect; inconclusive = small, poorly fitted or top-dose-only effect, or effect the other way; inactive = flat fitted curve, though single readings scatter; tested in HEK293 cells; about a fifth of its hits are not listed in these tables; note: % is set by controls: 0 for no effect and ±100 for the full control effect; luciferase read-out
2A StopGo = lowers the luciferase signal of an FMDV 2A StopGo reporter; human cells with a luciferase reporter of 2A StopGo recoding; control for the full effect not named in the record; Potency, µM (doses to about 57.9 µM), inactives show at the highest dose signal change, negative = less light; 1.2% of 410,000 active; AID 1159524; active = well fitted falling curve with a large enough effect; inconclusive = small, poorly fitted or top-dose-only effect; inactive = no such curve, though single readings can be large or run the other way; tested in HEK293T cells; note: % is set by controls: 0 for no effect and ±100 for the full control effect; nearly all actives have a fitted effect of over 45% in size; luciferase light after 4 h
Cruzain noTriton = inhibitors of Trypanosoma cruzi cruzain without detergent; P25779; purified cruzain, Z-FR-AMC fluorescence, no detergent; Potency, µM, for inactives: max response, negative = inhibition, actives largely listed as inhibitors; 2.3% of 200,000 active;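 note: plate controls were enzyme without inhibitor for no effect and buffer without enzyme for full effect; nearly all actives have a fitted effect of over 40% in size; top concentration of the series not given in the record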
Target sequence (P25779 123-467 limits assumed): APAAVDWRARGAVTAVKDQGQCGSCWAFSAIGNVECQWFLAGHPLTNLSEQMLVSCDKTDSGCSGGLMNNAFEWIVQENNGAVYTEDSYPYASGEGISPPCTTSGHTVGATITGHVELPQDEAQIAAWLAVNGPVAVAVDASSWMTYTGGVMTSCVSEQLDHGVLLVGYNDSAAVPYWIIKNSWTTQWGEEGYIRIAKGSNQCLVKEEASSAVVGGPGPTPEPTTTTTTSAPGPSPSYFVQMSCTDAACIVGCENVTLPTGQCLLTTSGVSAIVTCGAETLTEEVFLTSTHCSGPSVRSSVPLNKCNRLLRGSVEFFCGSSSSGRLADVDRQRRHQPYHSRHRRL
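Detergent-free condition (0.00005% Triton X-100) in acetate buffer pH 5.5 with DTT. 1.5 nM enzyme and compound were pre-mixed 15 min, then 2 uM Z-FR-AMC substrate added; reaction progress from fluorescence change between first and third reads (60 s).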
Lassa entry inh = blocks Lassa virus binding to or entry into cells. 1.2% of 300,000 active. Lassa virus pseudotype entry inhibition, cell reporter; control for the full effect not named in the record. Potency, µM (titrated, usually from 37.9 µM), inactives show at the highest dose activity change, negative = inhibition, hits mostly inhibitors; active means well fitted inhibition curve with a large enough effect; inconclusive means small, poorly fitted or top-dose-only effect, or effect the other way; inactive means flat fitted curve, though single readings scatter; tested in HEK293 cells; note: % is set by controls: 0 for no effect and ±100 for the full control effect; nearly all actives have a fitted effect of over 50% in size; luciferase read-out
NS1 inh = inhibitors of influenza NS1 protein function. Potency, µM (doses to about 46.1 µM), for the others: top-dose activity, positive = more growth. S. cerevisiae slowed by influenza A NS1, growth recovery by OD600. 0.4% of 270,000 active; active means well fitted rising curve with a large enough effect; inconclusive means small, poorly fitted or top-dose-only effect; inactive means no such curve, though single readings can be large or run the other way; note: nearly all actives have a fitted effect of over 50% in size
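Recovery from NS1-induced slow growth read by OD600 in budding yeast switched to galactose assay medium (pH 6.0, -URA) at 1:100 dilution. Compound 23 nl per well; the matching strain lacking NS1 serves as control.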
Cruzain Triton = blocks cruzain activity in presence of Triton detergent; P25779; 0.43% of 200,000 active; Potency, µM, inactives show max response, negative = inhibition, most hits filed as inhibitors; purified cruzain, Z-FR-AMC fluorescence, 0.01% Triton; AID 1478;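 note: plate controls were neutral wells for no effect and buffer without enzyme for full effect; nearly all actives have a fitted effect of over 40% in size; top concentration of the series not given in the record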
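In this qHTS format, compounds are incubated with 1.5 nM cruzain for 15 min at room temperature before 2 uM Z-FR-AMC is added. Release of AMC is followed at 360/450 nm, and progress is taken as the 60 s fluorescence difference.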
SARS PLpro yeast = blocks SARS-CoV papain-like protease in a yeast assay. S. cerevisiae expressing SARS-CoV PLpro, growth rescue; control for the full effect not named in the record. Potency, µM (top dose mostly 32.9 µM), inactives show at the highest dose activity, positive = growth rescue. 0.19% of 330,000 active; active means well fitted rising curve with a large enough effect; inconclusive means small, poorly fitted or top-dose-only effect; inactive means no such curve, though single readings can be large or run the other way; note: 0% is about no effect; nearly all actives have a fitted effect of over 55% in size; growth read by luminescence after 48 h
An asterisk follows results filed as active; u = inconclusive; x = not tested or not shown; & = joins results of further samples; [ ] = dose if it differs, or a comment. Unless noted, calls come from the whole dose curve; as a rule, active = well fitted curve in the direction sought with a large enough effect; inconclusive = small, poorly fitted or top-dose-only effect, or another doubt; inactive = no such curve, though single readings can be large; an effect the other way counts as inactive or inconclusive. Potency is the fitted concentration of half-maximal effect.

SMILES,RE007 growth inh,MARV entry inh,2A StopGo,Cruzain noTriton,Lassa entry inh,NS1 inh,Cruzain Triton,SARS PLpro yeast
O=C(NNc1nc2ccccc2s1)c1ccccc1F,3%,u,38%[activator],4%,9%,-14%,3.1%,6%
O=C(N/N=C/c1ccccc1O)/C(=C/c1ccccc1)CCO,-17%,u,54%[activator],1%,u,17%,-4.4%,3%
O=C(CN1C(=O)c2ccccc2S1(=O)=O)N1CCc2ccccc21,16%,u,0.79µM*,-3%,0.26µM*,u,-3.8%,11%
Cc1cccc2cc(CN(CCCO)C(=O)Nc3cccc(Cl)c3)c(=O)[nH]c12,1%,2%,-9%,u,14%,-1%,-2.9%,1%
COc1nc(SC)nc(Cl)c1Cc1ccc(OC(C)C)cc1,12%,-12%,-22%,0%,8%,-24%,-7.9%,-10%
Cc1ccc2nsnc2c1NC(=O)c1cccc([N+](=O)[O-])c1,x,1%,x,1%,16%,2%,-2.4%,-5%
COC(=O)c1cc(C)nc2c1c(=O)nc(SCc1cccc(C(F)(F)F)c1)n2C1CC1,x,x,-3%,-12%,9%[46.1 µM],x,2.3%,x
O=C1NC(=O)N(CC2CCCO2)C(=O)/C1=C/c1cccs1 (centres undefined),-6%,x,u,x,x,-5%,x,1%
O=C(COC(=O)c1cc(=O)[nH]c2ccccc12)NCc1cccc(Cl)c1,3%,-1%,-11%,x,4%,x,x,5%
C=CCN1N=C(/C=C/c2ccc(OC)cc2)CCC1=O,19%,u,17%,x,29%[46.1 µM],3%,x,-3%
O=S1(=O)N[C@H](c2ccccc2)C[C@H](c2ccc(C(F)(F)F)cc2)O1,-3%,x,59%[activator],x,x,-5%,x,0%
CC(C)NC(=O)CSCc1c(Cl)cccc1Cl,-18%,3%,18%,9%,6%,15%,-1.2%,8%
CC/C=C/C(=O)N1CC2(CC(c3cccc(NC(=O)c4ccccc4)c3)=NO2)C[C@@H]1C(N)=O (some centres undefined),-10%,2%,-20%,0%,x,9%,1.4%,-2%
CCOc1cc(/C=C2\CN(CC)C/C(=C\c3ccc(O)c(OCC)c3)C2=O)ccc1O,-4%,4.5µM*,10µM*,x,5µM*,-1%,x,-3%
O=C(Cn1nc(Cc2cccnc2)c2ccccc2c1=O)NCc1ccc(F)cc1,6%,x,-10%,4%,x,-3%,0.7%,6%
O=C(Nc1ccc(F)cc1)Nc1ccccc1C(=O)NCCN1CCNC1=O,-3%,0%[14.2 µM],5%,x,-17%,1%,x,-2%
COc1ccc(C(=O)N(NC(=O)Oc2ccccc2)C(C)(C)C)cc1,6%,7%,-11%,-2%,-3%,2%,-4.7%,-3%
COc1ccc(-c2cc(C(F)(F)F)nc(SCCC(=O)N3CCOCC3)n2)cc1,3%,26%&26%,-17%,u,-1%,-24%,-5.9%,20%
COc1ccc(OCc2ccc(-c3nc4ccccc4c(=O)n3N)o2)cc1,17%,u,22%,-2%,u,-6%,-2.0%,12%
O=C(COc1ccccc1Cl)Nc1ccccc1C(=O)N1CCCCC1,-2%,4%,-1%,x,1%,-5%,x,-5%
C=CCn1c(=N)c(S(=O)(=O)c2ccc(C)c(C)c2)cc2c(=O)n3ccccc3nc21,0%,x,5%,x,x,4%,x,2%
CC(C)OC(=O)CSc1nnc(-c2cnccn2)n1-c1ccc(Cl)cc1,-1%,4%,-10%,6%,0%,-94%,-1.0%,0%
O=C(c1c[nH]c(C(=O)C(Cl)(Cl)Cl)c1)c1ccccc1Cl,14%,7%,u,4%,3%,5%,0.2%,x
O=C(O)C(Oc1ccc2c(c1)oc(=O)c1ccccc12)c1ccccc1 (centres undefined),1%,x,-6%,x,x,0%,x,-7%
Cc1ccnc(N2CCC(C(=O)Nc3nnc(C)s3)CC2)n1,1%,-5%,8%,-5%,5%,0%,1.3%,1%
COc1ccccc1C1=NOC(COC(=O)c2ccc([N+](=O)[O-])cc2)C1 (centres undefined),-4%,6%[46.1 µM],23%,x,12%[46.1 µM],0%,x,0%
O=C(Nc1ccc(NS(=O)(=O)c2ccc([N+](=O)[O-])cc2)cc1)c1ccco1,u,-3%,-2%,x,4%,4%,x,-2%
Cc1cc(C(=O)N(C)Cc2c(F)cccc2Cl)c2ccccc2n1,-14%,-21%[46.1 µM],-7%,x,13%,-7%,x,-1%
O=C(CSc1nc(-c2ccccc2)cn1-c1ccccc1)Nc1ccccc1,x,x,40%[activator],u,-7%[46.1 µM],x,-3.0%,x
CCN(CC(=O)Nc1ccc(C#N)c(Cl)c1)CC(=O)NC(C)(C)C,-20%,u,-13%,x,0%,x,x,1%

Brought forward from above: 3 compounds; new compounds follow.
SMILES,RE007 growth inh,MARV entry inh,2A StopGo,Cruzain noTriton,Lassa entry inh,NS1 inh,Cruzain Triton,SARS PLpro yeast
Cc1cc(C(=O)N(C)Cc2c(F)cccc2Cl)c2ccccc2n1,-14%,-21%[46.1 µM],-7%,x,13%,-7%,x,-1%
O=C(CSc1nc(-c2ccccc2)cn1-c1ccccc1)Nc1ccccc1,x,x,40%[activator],u,-7%[46.1 µM],x,-3.0%,x
CCN(CC(=O)Nc1ccc(C#N)c(Cl)c1)CC(=O)NC(C)(C)C,-20%,u,-13%,x,0%,x,x,1%
CCOc1ccc(Nc2ncnc3ccc([N+](=O)[O-])cc23)cc1,25%,-13%[46.1 µM],u,x,2%,x,x,0%
O=C(NCC(=O)N(CCN1CCOCC1)C(C(=O)NC1CCCC1)c1ccccc1)c1cccs1 (centres undefined),-6%,5%[46.1 µM],-20%,x,1%[46.1 µM],2%,x,1%
CCOC(=O)CN1C(=O)C(C)(C)Oc2ccc(C(=O)NC(C)(C)CC)cc21,8%,6%,0%,4%,1%,-6%,5.1%,-1%
CC1=C(OC(=O)c2ccccc2)C(C)(C)C(c2ccc(Br)cc2)OC1=O (centres undefined),30%,u,u,u,0%,0%,-5.9%,-2%
CCN(c1ccccc1)S(=O)(=O)c1ccc(Oc2ccccc2C(C)=O)nc1,5%,-17%[46.1 µM],7%,x,9%[46.1 µM],x,x,1%
O=C(NCc1cccnc1)/C(=N\O)c1ccccc1,-1%,-1%&-1%[46.1 µM],1%,-2%,10%,8%,1.5%,1%
C=CCn1c(SCC(=O)N(C)C2CCS(=O)(=O)C2)nnc1-c1ccccc1 (centres undefined),8%,10%[46.1 µM],-18%,x,1%,x,x,-2%
COC(=O)c1ccc(NC(=O)COc2ccc3c(c2)OCO3)cc1,11%,-27%[46.1 µM],-4%,x,26%,4%,x,-3%
O=C(NC12CC3CC(CC(C3)C1)C2)N1CCN(c2ccccc2)CC1,1%,-9%[46.1 µM],6%,x,0%[46.1 µM],-11%,x,-5%
O=C(Nc1ccc(F)cc1)N1CCN(c2nc3ccccc3s2)CC1,-9%,-26%,28µM*,-6%,-17%,-51%,-3.9%,5%
COc1cccc(CN2CCNC(=O)C2CC(=O)NCc2cn3cccc(C)c3n2)c1OC (centres undefined),-12%,12%[46.1 µM],-4%,x,4%,-2%,x,-1%
CC(C)CC(=O)N1CCN(c2ccc(NC(=O)c3ccco3)cc2)CC1,7%,12%,4%,x,-1%,-23%,x,1%
CNC(=O)c1c(NC(=O)c2ccc3ncsc3c2)sc(C)c1C,-13%,3%,8%,x,10%,x,x,x
CC1CCCN(C(=O)c2ccc3c(=O)n(C4CCCC4)c(=S)[nH]c3c2)C1 (centres undefined),2%,-20%[46.1 µM],u,x,u,x,x,0%
CCOc1cc(CNC(=O)c2ccc3c(c2)N(C)C(=O)C2CCCCN32)cc(OCC)c1OCC (centres undefined),x,x,-24%,u,-19%[46.1 µM],x,-5.2%,x
CCOc1ccc(-c2nnc(SCC(=O)N(CC)CC)n2N)cc1,-4%,-8%,4%,1%,-1%,-3%,1.6%,-7%
COc1ccc(CCNC(=O)CSc2nc(C)cs2)cc1,0%,u,-10%,-8%,0%,-4%,-0.8%,-16%
COc1cc(C(=O)NC(=S)Nc2ccccc2[N+](=O)[O-])cc(OC)c1OC,-8%,x,-8%,x,x,7%,x,0%
Cc1noc(C)c1S(=O)(=O)N1CCC(C(=O)N2CCN(c3ccc(Cl)cc3)CC2)CC1,-6%,u,u,u,-16%,-3%,-1.8%,1%
Cc1ccc2c(CC(=O)N(Cc3ccc(N(C)C)cc3)Cc3ccco3)coc2c1C,x,5%[46.1 µM],u,-24%,u,x,-8.2%,x
O=C(O)c1oc2ccccc2c1CSCc1ccccc1,2%,9%,53%[activator],x,u,x,x,-1%
O=C(Nc1cccc(S(=O)(=O)N2CCCC2)c1)c1cc(-c2ccccn2)nc2ccccc12,5%,7.9µM*,-27%,x,u,x,x,0%
CCN1CCN(c2ncnc3c2cnn3-c2ccc(F)cc2)CC1,x,x,36%[activator],-3%,u,x,0.7%,x
Cc1cccc(C(=O)O/N=C(\N)Cc2cccc3ccccc23)c1,-14%,x,u,x,x,-137%,x,-17%
Cc1cc(OCC(=O)Nc2ccncc2)ccc1Br,u,0%,u,-6%,1%,-87%,1.3%,-14%
Fc1ccc(N2CCN(C(c3cccs3)c3nnnn3C3CCCC3)CC2)cc1 (centres undefined),6%,u,x,14%,u,-45%,-5.1%,-4%
COc1ccc(-c2nc3c(c(SCC(=O)N4CCCCC4)n2)Cc2cc(C)ccc2O3)cc1,x,12%[46.1 µM],-4%,5%,18%[46.1 µM],x,-2.5%,x
Cc1nc(SCC(=O)Nc2ccc(C)c(F)c2)c2oc3ccccc3c2n1,26%,-15%,-17%,u,2%,-1%,3.0%,2%
